Bioassay records from PubChem.
miR-21 reporter: raises the signal of a miR-21 reporter. Potency, µM (series often up to 38.3 µM), inactives show at the top dose reporter change, positive = more light. 340,000 tested, under 10 active. HeLa miR-21 FLuc reporter, luciferase, 48 h; active = well fitted rising curve with a large enough effect; inconclusive = small, poorly fitted or top-dose-only effect; inactive = no such curve, though single readings can be large or run the other way;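 note: % of control where 0% means no effect; miR-21 action dims this reporter so a rising signal means less miR-21 action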
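Compounds were titrated across several concentrations (up to approximately 40 uM) and incubated 48 hours with HeLa miR-21-FLuc reporter cells (miR-21 target sequence downstream of FLuc, endogenous miR-21). Readout was firefly luciferase luminescence after lytic detection reagent.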
Rango-impB inh: Rango-importin beta binding inhibition; Rango CFP/YFP FRET sensor + importin beta, 45 min; Potency, µM (series often up to 92.2 µM), inactives show at the top dose inhibition of complex formation; 340,000 compounds, 0.031% hits; active = rising FRET ratio curve, often small or poorly fitted; inconclusive = mostly compound fluorescence or quenching in the first reads; inactive = flat curves in all reads;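 note: potency is the fitted concentration of half-maximal effect; 0% = DMSO wells and 100% = buffer wells lacking importin beta; nearly all actives have a fitted effect of over 15% in size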
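FRET biosensor Rango (snurportin 1 IBB between N-terminal EYFP and C-terminal Cerulean), 50 nM in PBS/1 mM DTT/0.02% Tween-20/0.1% BSA, preincubated 5 min RT with compound; 0.125 microM importin beta added, 45 min RT, CFP/YFP FRET ratio read.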
Rango release inh: inhibition of RanGTP-driven Rango-importin beta dissociation. O95149+P62826. Potency, µM (top dose mostly 46.1 µM), for inactives: top-dose activity change, negative = inhibition. Biochemical FRET Rango-importin beta, RanGTP-induced dissociation. 340,000 compounds, 0.071% hits. AID 540253; active means falling FRET ratio curve, often poorly fitted, with flat reads before Ran was added; inconclusive means other falling curves, or compound fluorescence or quenching; inactive means flat or rising ratio curve;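 note: potency is the fitted concentration of half-maximal effect; % of control where 0% means no effect; nearly all actives have a fitted effect of over 45% in size; -100% = wells without RanGTP and RCC1; the record marks most hits as doubtful in a second field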
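Recombinant Rango FRET biosensor (EYFP–snurportin 1 IBB–cerulean CFP10) at 0.1 uM premixed with 0.25 uM importin beta in PBS, 1 mM DTT, 0.02% Tween-20, 0.1% BSA. Compound added 5 min; RanGTP-RCC1 (0.6 uM Ran, 2 mM GTP, 0.2 uM RCC1) then triggers release, read at 45 min.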
GLA inh pH 4.5: blocks human alpha-galactosidase A at pH 4.5. AID 1467. purified enzyme, 4-MU-alpha-Gal fluorescence, pH 4.5. P06280. 230,000 tested, under 10 active. activity change, negative = inhibition, % at 105 µM; inconclusive = small, poorly fitted or top-dose-only inhibition, or a rising curve; inactive = flat fitted curve, though single readings scatter; no compound was filed as active;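 note: 0% = full activity with enzyme and -100% = basal without enzyme; dose as in the result columns while the protocol names 77 µM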
Target sequence (P06280 whole entry, looked up): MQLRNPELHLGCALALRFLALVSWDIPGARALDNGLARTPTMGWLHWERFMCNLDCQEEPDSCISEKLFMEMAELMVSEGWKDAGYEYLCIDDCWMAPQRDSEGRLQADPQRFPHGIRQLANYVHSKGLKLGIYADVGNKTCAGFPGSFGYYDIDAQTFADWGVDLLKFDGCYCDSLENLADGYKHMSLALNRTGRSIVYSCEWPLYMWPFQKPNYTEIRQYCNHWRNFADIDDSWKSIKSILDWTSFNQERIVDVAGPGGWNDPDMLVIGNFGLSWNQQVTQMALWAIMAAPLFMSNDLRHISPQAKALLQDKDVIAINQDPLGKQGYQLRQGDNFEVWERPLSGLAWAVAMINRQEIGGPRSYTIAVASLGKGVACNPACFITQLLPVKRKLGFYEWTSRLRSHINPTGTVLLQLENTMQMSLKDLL
Active calls of the source: *; ? = inconclusive; nt = no result given; & = joins results of further samples. These rows are one share of the data; the hit share may differ from the screen's.

Every second line gives: Rango-impB inh, GLA inh pH 4.5, miR-21 reporter, Rango release inh
1. O=c1c2ccccc2ncn1Cc1cccc2ccccc12
 : -4.3%, -1, -20%, -1%
2. CC(=O)c1cccc(CN2CCN(C3CCCCC3)C(CCO)C2)c1 (centres undefined)
 : -0.3%, -3, 4%, -12%
3. COCCNC(=O)c1cc2c(=O)n3cccc(C)c3nc2n(Cc2ccncc2)c1=N
 : ?, 25, 1%, ?
4. O=C(Nc1cccc(C(=O)O)c1)Nc1cccc2ccccc12
 : 5.1%, nt, -31%, 1%
5. Nc1cc(N)nc(SCC(=O)c2ccc3c(c2)NC(=O)CO3)n1
 : 0.4%, 7, 0%, 2%
6. COc1ccc(C(=O)N/N=C(\C)CC(=O)NC2CCCCC2)c(OC)c1
 : -6.4%, nt, -14%, 2%
7. CN(CCCNC(=O)c1ccc(N2CCCC2=O)cc1)c1ccccc1
 : 0.3%, 1, -6%, 0%
8. CCOC(=O)C1CCN(C(=O)COc2cccc(C)c2)CC1
 : -1.8%, 2, -4%, -8%
9. O=C(Nc1ccc(S(=O)(=O)O)cc1)c1ccc2c(c1)S(=O)(=O)c1ccccc1C2=O
 : 1.0%, nt, nt, 38%
10. CSc1sc(C(=O)N(C)C)c2c1S(=O)(=O)N(C)c1ccccc1-2
 : -1.1%, 4, -1%, -23%
11. CCN1C(=O)c2ccc(-c3nc4ccccc4c(=O)o3)cc2C1=O
 : -4.9%, 5, 0%, ?
12. CCOC(=O)N1CCC(NC(=O)c2cc(C(=O)Nc3ccc(F)cc3F)ccc2CO)CC1
 : -5.0%, -13, -12%, 6%
13. Cc1ccc(S(=O)(=O)N2CCCCC2C(=O)N2CCN(c3ccccc3F)CC2)cc1 (centres undefined)
 : 4.3%, -4, -2%, 1%
14. CC(=O)c1cc(C#N)c(Oc2cc(C)cc(C)c2)nc1C
 : ?, -2, -5%, 7%
15. COc1ccc(/C=C/C(=O)c2ccccc2)c(OC)c1
 : ?, -4, -34%, ?
16. Cc1cc(=O)n2nc(N3CCCC3C(=O)Nc3ccccc3C)sc2n1 (centres undefined)
 : ?, nt, -3%, 1%
17. O=C(NCCN1CCc2ccccc2C1)C1CC(=O)N(C2CCCC2)C1 (centres undefined)
 : 0.6%, 0, -1%, 6%
18. COc1ccc(S(=O)(=O)NCC2CCCN(Cc3ccccc3Cl)C2)cc1 (centres undefined)
 : 0.2%, nt, -6%, 0%
19. ClCc1csc(N/N=C/c2cccs2)n1
 : nt, 0, -37%, nt
20. O=C(N/N=C/c1ccc(-n2ccnc2)cc1)c1cccs1
 : -1.0%, nt, -47%, -9%
21. O=C(Cc1ccc(Cl)cc1)Nc1ccccc1C(=O)Nc1ccc(C(=O)O)cc1
 : -3.4%, 6, -1%, 9%
22. O=C(CC1C(=O)NCCN1Cc1ccccc1)NCCN1CCCCC1=O (centres undefined)
 : ?, nt, 0%, 0%
23. Cc1nnc(NC(=O)C2CCCN(S(=O)(=O)Cc3ccccc3)C2)s1 (centres undefined)
 : 3.3%, 2, -2%, 3%
24. O=C(Nc1nc(-c2ccc(Cl)cc2Cl)cs1)C1CCCO1 (centres undefined)
 : 0.7%, -11, -21%, 4%
25. COc1ccc2c(C)c(CCC(=O)NCCCN3CCCC3=O)c(=O)oc2c1C
 : 1.8%, nt, -2%, -6%
26. Cc1ccc(S(=O)(=O)/N=S(/C)c2ccccc2)cc1 (centres undefined)
 : 3.2%, -5, 0%, -4%
27. Cc1nc(C(C)NC(=O)CCc2nnc(Cc3c[nH]c4ccccc34)o2)cs1 (centres undefined)
 : -2.2%, 5, -9%, -4%
28. CC(NC(=O)c1ccccc1F)c1ccccc1 (centres undefined)
 : -2.7%, -5, 2%, 1%
29. CCCc1cc(N2CCOCC2)n2nc(C)c(-c3ccccc3)c2n1
 : -3.5%, nt, -1%, 4%
30. O=C(Cc1n[nH]c(=O)c2ccccc12)OCC(=O)c1ccccc1
 : -0.5%, nt, nt, 1%
31. C=CCNC(=O)c1ccc(C(=O)c2ccccc2)cc1
 : ?, 2, -30%, 4%
32. CC(C)(C)NC(=O)c1cccc2c1OC(C)(C)C2
 : 1.5%, 4, -2%, 5%
33. CCCOc1cc(C)c(S(=O)(=O)n2ccc(C)n2)cc1C
 : 0.9%, 3, -7%, 1%
34. CC1=NOC(=O)/C1=C\c1ccccc1
 : 3.2%, 2, -3%, 25%
35. COc1cc(C(=O)N/N=C/c2cccc(Oc3ccccc3)c2)ccc1O
 : -0.1%, nt, -3%, 3%
36. CS(=O)(=O)N1CCC(C(=O)Nc2ccc(Br)cc2F)CC1
 : 3.0%, 0, -3%, 4%
37. C=CCN1C(=O)C(C)S/C1=N\S(=O)(=O)c1ccc(Cl)cc1 (centres undefined)
 : ?, 2, -4%, 9%
38. CCOc1ccccc1NC(=O)Cn1nnc(C(=O)NCCc2ccc(OCC)c(OCC)c2)c1N
 : -3.0%, nt, -8%, ?
39. CC(C)N1CCN(c2ccc(OCC3COC(Cn4cncn4)(c4ccc(Cl)cc4Cl)O3)cc2)CC1 (centres undefined)
 : 0.6%, nt, nt, -10%
40. CCOC(=O)C1C(c2ccc(C)o2)NC(=O)NC1(O)C(F)(F)F (centres undefined)
 : -2.2%, 8, 1%, 28%
41. CCC(C(=O)NC1CCCCC1)n1c(SCc2ccc(F)cc2)nc2ccncc21 (centres undefined)
 : -3.3%, -13, 11%&3%, 14%
42. Cc1cc(NC(=O)CSCC(=O)Nc2nc3ccc(F)cc3s2)no1
 : 1.5%, nt, nt, -2%
43. CNC(=O)c1csc(-c2ccc(C)cc2)n1
 : -1.0%, 2, -51%, 5%
44. CC(C)C(C)NC(=O)COc1ccc(S(=O)(=O)N2CCOCC2)cc1[N+](=O)[O-] (centres undefined)
 : -2.8%, 4, 3%, -7%
45. COc1ccccc1Oc1ccc(N/C=C/C(=O)c2ccc(C)o2)cc1
 : ?, -11, -22%, ?
46. COc1ccc(NC(=O)N[C@@H](CCSC)C(=O)O)cc1Cl
 : -3.0%, 6, -4%, -14%
47. COc1ccccc1C(=O)Nc1ccc2c(c1)nc1n2CCN(Cc2ccccc2)C1
 : 3.9%, -2, -23%, -4%
48. O=C(NCCCc1ccccc1)c1cc(COc2ccc(F)cc2Cl)on1
 : -3.1%, nt, 5%, -14%
49. CCCOc1ccc(C(=O)C(CCC(CNCC)C(=O)c2ccc(OCCC)cc2)CNCC)cc1 (centres undefined)
 : 0.3%, -11, ?, 3%
50. O=C(NC1CCOCC1)C1CCC(=O)N(CCc2cccc(F)c2)C1 (centres undefined)
 : -0.6%, nt, -1%, -2%
51. O=C(CN1CCN(S(=O)(=O)c2ccc(F)c(Cl)c2)CC1)N1CCNC1=O
 : 2.6%, nt, nt, -12%
52. CCOc1ccc([C@@H]2CC=C(C(=O)O)[C@H](c3ccc(F)cc3)N2S(=O)(=O)c2ccc(C)cc2)cc1
 : -5.1%, nt, nt, -6%
53. Cc1ccc(OCC(O)CN2CCc3ccccc3C2)c(C)c1 (centres undefined)
 : -0.6%, nt, 2%, 34%
54. CCOc1ccccc1N(CC(=O)NCCSc1ccccn1)S(=O)(=O)c1ccc(C)cc1
 : -1.4%, nt, 11%, 10%
55. COC(=O)c1ccc(C)c(NC(=O)CCCN2C(=O)CN(C)C2=O)c1
 : 8.3%, nt, nt, -6%
56. Cc1ccc(C(=O)N2N=C3c4ccccc4S(=O)(=O)N3[C@H]2N(C)C)cc1
 : -0.1%, -7, -5%, -12%
57. CC(=O)NNc1ncnc2c1cnn2-c1ccc(C)c(Cl)c1
 : 2.6%, 8, -50%, 9%
58. Brc1cc2[nH]cnc2c2ccccc12
 : 1.0%, -15, -11%, -2%
59. CCOC(=O)c1c(C)oc2ccc(NS(=O)(=O)c3cccs3)cc12
 : 3.3%, 4, -5%, -8%
60. CCOC(=O)c1ccc2c(c1)nc(SC(C)C(=O)NCC1CCCO1)n2CC (centres undefined)
 : -5.8%, nt, nt, 29%

Going on with the list:
Every second line gives: Rango-impB inh, GLA inh pH 4.5, miR-21 reporter, Rango release inh
61. O=c1c2c(nc3nc(COc4ccccc4)[nH]n13)CCC2
 : -0.4%, 3, -1%, -6%
62. Cc1ccc(-n2c(SCC(N)=O)nc3c([nH]c4ccccc43)c2=O)cc1
 : -0.3%, 6, -12%&-2%, 14%
63. O=C(CCC1CCCC1)NNC(=O)COc1ccc(Br)cc1
 : 0.3%, nt, nt, 3%
64. COCCNC(=O)Cn1cnc2sc(C)c(S(=O)(=O)N3CCC(C)CC3)c2c1=O
 : 1.4%, -9, 0%, 5%
65. CC(C)C(=O)Nc1nnc(S(=O)(=O)N2c3ccccc3CC2C)s1 (centres undefined)
 : -3.0%, nt, 1%&-7%, 13%
66. N#Cc1c(SCC(=O)Nc2cccc(F)c2)sc2c(O)cc(=O)[nH]c12
 : -5.9%, nt, 2%, -11%
67. C[C@H](CO)N1C[C@H](C)[C@@H](CN(C)S(=O)(=O)c2ccccc2)Oc2ccc(NC(=O)NC3CCCCC3)cc2C1=O
 : -1.5%, nt, nt, -5%
68. COC(=O)c1ccc(CNC(=O)CSC2=NCCS2)cc1
 : -1.4%, -22, -5%, 9%
69. Brc1cc(Br)c2nc(-c3cccs3)ccc2c1
 : 0.7%, -18, -27%, 2%
70. CC(C)N1CCC(N2CCN(Cc3ccc4nonc4c3)CC2CCO)CC1 (centres undefined)
 : 7.2%, -8, -6%, 5%
71. NCCNC(=O)c1c(NC(=O)c2ccccc2)sc2c1CCCC2
 : ?, nt, -51%, ?
72. O=[N+]([O-])c1ccccc1N/N=C/c1c[nH]c2ccccc12
 : 2.3%, 0, -50%, -15%
73. c1ccc(-c2nc(NCc3ccco3)c3ccccc3n2)nc1
 : 6.2%, 10, ?, -14%
74. COc1cc(OC)cc(C(=O)NC(=S)Nc2ccc(Cl)c(C(=O)O)c2)c1
 : -0.3%, 5, -7%, 0%
75. O=C1CC(N2CCC(c3nc4ccccc4[nH]3)CC2)C(=O)N1Cc1ccccc1 (centres undefined)
 : -0.6%, 5, -1%, 27%

Profiles, looked up by structure. Order of values: Rango-impB inh	GLA inh pH 4.5	miR-21 reporter	Rango release inh
Shown for COc1cc(C(=O)N/N=C/c2cccc(Oc3ccccc3)c2)ccc1O = -0.1%	nt	-3%	3%
Shown for Cc1nnc(NC(=O)C2CCCN(S(=O)(=O)Cc3ccccc3)C2)s1 (centres undefined) = 3.3%	2	-2%	3%

Next section:
Every second line gives: Rango-impB inh, GLA inh pH 4.5, miR-21 reporter, Rango release inh
76. O=C(C1=C[C@H](C2CC2)C[C@H](OCc2ccc(CO)cc2)O1)N1CCOCC1
 : -2.6%, 4, -6%, -7%
77. CC(=O)N1CCN=C1SCc1c(F)cccc1Cl
 : -3.4%, -7, -8%, 16%
78. Cc1ccc(NC(=O)N2CCC(NC(=O)C(C)(C)C)CC2)cc1
 : 3.1%, 2, -10%, 22%
79. O=C(CN1CC(=O)Nc2ccccc21)NCCc1ccc(Cl)cc1Cl
 : 3.0%, -2, 2%, 1%
80. CCn1cnc2cc(NC(=O)COc3ccc(C)cc3)ccc21
 : 1.6%, nt, nt, -2%
81. O=C(C1CCCN(S(=O)(=O)c2ccccc2[N+](=O)[O-])C1)N1CCCC1 (centres undefined)
 : -4.4%, -4, -1%, -4%
82. NC(=O)C1CCN(C(=O)Cn2cccc2C(=O)c2ccccc2)CC1
 : -2.6%, 12, 0%, ?
83. COc1ccc(-c2[nH]c(-c3ccc(F)cc3)nc2SCC(=O)NC2CCCC2)cc1
 : 1.3%, -3, 10%, 9%
84. O=C(O)CC1S/C(=N/N=C/c2ccc(-c3ccc(Cl)cc3[N+](=O)[O-])o2)NC1=O (centres undefined)
 : -5.0%, -9, 0%, -26%
85. CC1=CC(C)(C)N(C(=O)CN2C(=O)CCC2=O)c2ccc(C)cc21
 : -3.4%, 8, -3%, 12%
86. CN(CC(=O)Nc1ccc2c(c1)OCO2)S(=O)(=O)c1cccs1
 : -0.8%, nt, -54%, -9%
87. COc1cc(OC)c(OC)cc1/C=N/NC(=O)CC1C(=O)NN=C1C (centres undefined)
 : 1.7%, -2, 0%, 3%
88. COC1CCN(C(=O)c2ccc3oc(C(C)C)nc3c2)CC1
 : -0.6%, nt, -19%, -16%
89. COc1ccc(C(=O)COC(=O)CCc2ccccc2)cc1
 : -0.6%, 5, 0%, 3%
